CDC25B CDK2 inh: primary biochemical HTRF screen for blockers of M-phase inducer phosphatase 2 binding to CDK2/cyclin A; HTRF CDC25B-CDK2/CyclinA binding, anti-His/anti-Flag; hits give high values; 0.72% of 94,000 active; P30305+P24941; z-score (no concentration beside the values);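 also: score is relative to mean and SD of negative controls; strong numbers were not always called active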
HIV TAR-Tat: TAR RNA-Tat peptide displacers, HIV-1, primary screen, biochemical, FRET, FAM/TAMRA-labeled Tat. 0.6% of 100,000 active. z-score (concentration not given with the values). HIV-1 TAR RNA, Tat peptide displacement FRET; hits give high values;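 also: score is relative to mean and SD of negative controls; some compounds called inactive have numbers as strong as hits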
* = called active by the depositor; . = not tested or not shown.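 The calls were made as follows: active = z-score from 3 up in half or more of its runs; inactive = the rest.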

Screens in order: CDC25B CDK2 inh, HIV TAR-Tat
- CCc1ccc2[nH]c(C(=O)NCc3ccccc3)cc2c1
    -1.2, .
- CN(CCNC(=O)c1csc2c1CCCC2)C1CCCCC1
    0.5, -0.19
- CNC(=O)N1CCN(S(=O)(=O)c2ccc3c(ccn3C)c2)CC1
    ., 1.3
- O=C1c2ccccc2C(=O)C1(c1ccccc1)N1CCN(c2ccccc2F)CC1
    0.04, 0.8
- COc1ccc(OC)c(S(=O)(=O)N2CCN(C(c3ccccc3)c3ccccc3)CC2)c1
    -0.97, -0.01
- COc1ccc(OC)c(NC(=O)C(=O)NCc2ccco2)c1
    -0.33, .
- CCN(CCO)c1ncnc2onc(-c3ccccc3C)c12
    ., -0.24
- CC1=C(C(=O)N2CCC(C)CC2)C2(CCN(S(=O)(=O)c3cccs3)CC2)OC1=O
    ., -0.72
- CCCN1CCN(c2cc(NCC)c3c4c(onc24)-c2ccccc2C3=O)CC1
    -1.8, -0.63
- O=S(=O)(c1ccc(Cl)cc1)N1CCCC(c2nc(-c3cccc(Cl)c3)no2)C1 (stereo not drawn)
    ., 1.5
- CCCSCCCNC(=O)c1cnn2c3c(cnc12)CCCC3
    ., -0.97
- O=C(c1ccc(CSCc2ccccc2F)o1)N1CCN(c2ccc(N3CCOCC3)nn2)CC1
    -0.68, 0.46
- O=c1[nH]c2ccc([N+](=O)[O-])cc2[nH]1
    -2.7, .
- Nc1ccccc1SC(C[N+](=O)[O-])c1ccccc1 (stereo not drawn)
    1, .
- c1cc(-c2nc3cc(Oc4ccc5oc(-c6ccncc6)nc5c4)ccc3o2)ccn1
    -1.2, 0.68
- CC(C)c1ccc(C2C(C#N)=C(N)Oc3cc(O)ccc32)cc1 (stereo not drawn)
    0.03, 0.3
- COc1cccc(C2CC(c3cccc(OC)c3)n3nc(N)nc3N2)c1 (stereo not drawn)
    -2.4, -0.38
- COc1ccccc1C1C2=C(CC(C)(C)CC2=O)Nc2nc(SCC(=O)c3ccc(F)cc3)nn21 (stereo not drawn)
    -2.1, -1.4
- CC1CCN(c2nc3c(c(=O)n(C)c(=O)n3C)n2Cc2ccc(Br)cc2)CC1
    -1.8, -0.15
- COC(=O)C1=C(C)NC2=C(C(=O)c3ccccc32)C1c1ccc(-c2ccc(Cl)cc2)o1 (stereo not drawn)
    -0.28, -3.4
- CN1C(=O)Cc2cc(S(=O)(=O)CCC(=O)N3CCN(c4ccccc4F)CC3)ccc21
    ., 0.92
- O=C(Nc1ccc(F)cc1F)N1CCCC1c1ccco1 (stereo not drawn)
    -1.3, 0.32
- O=C(O)c1cccc2c1-c1ccccc1C2=O
    ., 1.7
- CCc1ccc(S(=O)(=O)c2cn(C)c3cc(N4CCOCC4)c(F)cc3c2=O)cc1
    ., -1.5
- COc1cccc(Nc2cc(-n3nc(C)cc3C)ncn2)c1
    ., 1
- O=S(=O)(NCC1OCCc2ccccc21)c1ccccc1 (stereo not drawn)
    -1.1, 0.62
- Cc1csc2nc(CNC(=O)c3ccco3)cn12
    -0.24, 2
- O=C(C1Sc2nnc(-c3ccccc3)n2NC1c1ccc(Cl)cc1)N1CCOCC1 (stereo not drawn)
    -1.8, -0.03
- c1cc(-c2nc3ccccc3o2)nc(-c2nc3ccccc3o2)c1
    -0.35, 3.1
- CC(=O)N1N=C(c2c(F)cccc2Cl)OC1c1cccs1 (stereo not drawn)
    ., 0.87
- O=C1c2cccnc2C(=O)N1Cc1ccc(S(=O)(=O)Nc2cccc(F)c2)s1
    ., 0.36
- O=P(O)(O)C(O)(Cn1ccnc1)P(=O)(O)O
    -0.33, .
- O=C(Cn1ncc2c(=O)oc3ccccc3c21)N(Cc1ccco1)C1CCCCC1
    0.77, 1
- CC1(C)Cc2nc3sc4c(NCC5CCCO5)ncnc4c3cc2CO1 (stereo not drawn)
    0.18, 0.98
- CC(=O)Nc1cccc(OCCCNS(=O)(=O)c2cn(C)c(C)n2)c1
    -1.5, .
- Cc1cc(S(=O)(=O)NC(c2nnc(-c3ccccc3)o2)c2ccccc2Cl)ccc1F (stereo not drawn)
    ., 1
- CSc1ccc(C2C(C(=O)OC3CCCCC3)=C(C)NC3=C2C(=O)CCC3)cc1 (stereo not drawn)
    -0.64, 1
- Cc1cc(C(F)(F)F)cc(NNC(=O)NC(=O)c2c(F)cccc2F)n1
    0.36, .
- Brc1ccc(-c2cnc(-c3ccccc3)o2)cc1
    0.28, .
- COc1ccccc1OCCn1cc(C(=O)c2cccs2)c2ccccc21
    -0.23, 2
- Fc1ccc(Nc2c3c(nc4ncnn24)CCC3)cc1
    ., 0.68
- CCOC(=O)/C(=N\O)C1=CSC2=NNC(C)(C)N12
    -1.1, .
- COc1ccc(C2C3=C(CC(C)(C)CC3=O)NC3=C2C(=O)CC(C)(C)C3)cc1OC
    -0.28, -0.23
- C=CCOC(=O)COc1cc(C)cc2oc(=O)cc(-c3ccccc3)c12
    0.69, .
- O=C(O)c1ccc(CNC2CCCCC2)s1
    ., 1.5
- Cc1cc(-c2ccc(C)c(S(=O)(=O)Nc3ccc(F)cc3)c2)on1
    ., 0.7
- Clc1cccc(CN2CCc3nc(N4CCN(c5ncccn5)CC4)ncc3C2)c1
    ., -0.15
- COc1ccc(Cl)cc1N1C(=O)C2CCCN2C1c1cccc(Cl)c1 (stereo not drawn)
    -0.51, -0.74
- COCCCNc1ncnc2c1nnn2C
    ., 1.4
- COc1ccc(-c2nnc3c4ccccc4n(Cc4ccccc4)cc2-3)cc1OC
    -0.23, 1.6

The list goes on.
Screens in order: CDC25B CDK2 inh, HIV TAR-Tat
- CC12CCC3(C=C1CCC1C2C(=O)CC2(C)C1CCC21OCCO1)OCCO3 (stereo not drawn)
    -1.7, .
- C[C@]12C[C@H](O)[C@H]3[C@@H](CCC4=CC(=O)CC[C@@]43C)[C@@H]1CC[C@@H]2C(=O)CO
    -1.7, 1.6
- COc1ccc(OC)c(NC(=O)c2ncoc2-c2cccs2)c1
    ., 0.26
- CN(C)CCCN1CC(C(=O)O)CC1=O (stereo not drawn)
    -1.2, 0.78
- CCOC(=O)c1cc(S(=O)(=O)N(C)CC(=O)NC(C)CC)cn1C (stereo not drawn)
    ., 0.21
- O=c1c2c(nc(NCCCO)n1-c1ccccc1)-c1ccccc1CC21CCCCC1
    0.06, -0.65
- CCN(C(=O)c1sc2nc3n(c(=O)c2c1C)CCCC3)c1ccc(F)cc1
    ., 0.93
- Cc1nn(C(C)C(=O)Nc2ccccc2Br)c(=O)c2nn(-c3ccccc3)c(C)c12 (stereo not drawn)
    ., -0.71
- Cc1nn(S(=O)(=O)c2ccc3ccccc3c2)c(C)c1S(=O)(=O)N1CCCC1
    ., 0.58
- S=c1ccss1
    ., 0.71

3 of the compounds above, bar-delimited:
molecule | CDC25B CDK2 inh | HIV TAR-Tat
CC12CCC3(C=C1CCC1C2C(=O)CC2(C)C1CCC21OCCO1)OCCO3 (stereo not drawn) | -1.7 | .
C[C@]12C[C@H](O)[C@H]3[C@@H](CCC4=CC(=O)CC[C@@]43C)[C@@H]1CC[C@@H]2C(=O)CO | -1.7 | 1.6
COc1ccc(OC)c(NC(=O)c2ncoc2-c2cccs2)c1 | . | 0.26

(cont.)
Screens in order: CDC25B CDK2 inh, HIV TAR-Tat
- COc1ccc(-c2coc3cc4oc(=O)c5ccccc5c4cc23)cc1F
    1.6, 0.24
- COC(=O)c1cnn2c(C)cc(C)nc12
    -2.6, .
- O=S(=O)(Nc1cccc(CO)c1)c1cccs1
    -0.74, .
- O=S1(=O)C[C@H](N2CCCC2)[C@@H](S(=O)(=O)c2ccccc2)C1
    -0.42, -1.1
- CN1C(=O)N(C)C2NC(=O)NC21 (stereo not drawn)
    4.7, .
- COc1ccc(N2CCN(c3ncc4c(n3)CCN(Cc3cc(F)cc(F)c3)C4)CC2)cc1
    ., 1.1
- COc1cccc(NC(=O)Cn2nc3c4sccc4ncn3c2=O)c1
    ., -0.06
- O=C(CN1CCN(c2ccccn2)CC1)c1ccc2c(c1)CCN2
    -2.4, 1.1
- O=C(Sc1ccccc1)c1ccc(C(F)(F)F)cc1
    -2, .
- COc1cc(OC)cc(C(=O)Nc2c[nH]c(=O)[nH]c2=O)c1
    -1.1, -0.03

Given as tab-separated lines: part of the list above.
smiles	CDC25B CDK2 inh	HIV TAR-Tat
COc1ccc(-c2coc3cc4oc(=O)c5ccccc5c4cc23)cc1F	1.6	0.24
O=C(Sc1ccccc1)c1ccc(C(F)(F)F)cc1	-2	.
COc1ccc(N2CCN(c3ncc4c(n3)CCN(Cc3cc(F)cc(F)c3)C4)CC2)cc1	.	1.1
O=C(CN1CCN(c2ccccn2)CC1)c1ccc2c(c1)CCN2	-2.4	1.1
COc1cc(OC)cc(C(=O)Nc2c[nH]c(=O)[nH]c2=O)c1	-1.1	-0.03
COc1cccc(NC(=O)Cn2nc3c4sccc4ncn3c2=O)c1	.	-0.06

The list goes on:
Screens in order: CDC25B CDK2 inh, HIV TAR-Tat
- Cc1ccc(NS(=O)(=O)c2ccc(S(N)(=O)=O)cc2)cc1
    -2.4, 0.1
- COc1ccc(S(N)(=O)=O)cc1-c1noc(C2CCCCC2)n1
    -1.6, 0.17
- CCOC(=O)CN1CSC2=C(C#N)C(c3ccc(F)cc3)CC(=O)N2C1 (stereo not drawn)
    -0.34, 2.3
- COC(=O)CC1(C(=O)OC)Oc2ccc(Br)cc2C(=O)N1c1ccc(F)c(Cl)c1 (stereo not drawn)
    -0.13, .
- Cc1noc(C(=O)NC2CCCCC2)c1Cl
    -0.89, 0
